# Source: PubChem BioAssay
# Autofluor counter: compound fluorescence in toxin protease inhibitor counterscreen | compound autofluorescence counterscreen, microsphere flow cytometry; hits give high values | fluorescence intensity (test concentration not listed) | actives 3.1% (n = 360,000) | AID 624483;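 active means at least 3 SD above the mean of all compounds, about 16000 in these data; inconclusive means too few beads counted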;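 further: 100 nL of 1 mM stock went into each well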
# ugtP null kill: compounds lethal to S. aureus RN4220 ugtP deletion mutant | OD600 growth, 16 h; some inactives read as strong as hits | growth inhibition, % (concentration not given with the values) | actives 0.54% (n = 330,000) | AID 1259309;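 active means z-score under -3 and OD600 up to 0.15 on both plates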;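 further: plate controls were untreated wells for no effect and antibiotic for full effect; wells of about 80 µL received 100 nL stock; the first replicate is given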
# Mtb hypoxia inh: inhibitors of hypoxia-regulated fluorescent reporter in Mycobacterium tuberculosis. M. tuberculosis hypoxia-regulated fluorescent reporter, fluorescence. fluorescence inhibition, % (test concentration not listed). actives 0.1% (n = 300,000);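 active means 35 to 45% if threefold the growth effect, above 45% if 1.5-fold the growth effect; inactive means the rest, general growth blockers included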;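 further: wells of about 50 µL received 100 nL stock; 0% = vehicle wells and 100% = reference inhibitor wells; whole bacteria with a GFP reporter of the hypoxia response; strong numbers were not always called active; many hits fall short of the cut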
# BJeLR lethal: kills HRASV12-expressing BJeLR cells; actives 0.17% (n = 300,000); AID 1554; BJeLR (HRASV12) viability, CellTiter-Glo ATP luminescence, 48 h; reference of the scale not given here; inhibition, % (test concentration not listed);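 active means replicate mean above 50%; inconclusive means above 50% but judged a plate artefact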;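 further: 50 nL library stock added to about 25 µL; numbers are from one replicate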
# RN4220 kill: S. aureus RN4220 growth inhibition. actives 0.33% (n = 330,000). inhibition, % (concentration not given with the values). OD600, 16 h;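 active means z-score of -3 or lower and OD600 up to 0.18 on both plates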;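 further: plate controls were untreated cells for no effect and reference antibiotic for full effect; stock transfer was 100 nL into about 80 µL; one replicate is shown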
# PrP UTR inh: suppresses PrP 5' UTR mRNA reporter expression | actives 0.35% (n = 340,000) | inhibition, % (concentration not given with the values) | AID 488862 | cell-based PrP 5' UTR mRNA reporter, plate reader;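 active means every replicate at 50% or more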;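 further: 0 = median of the neutral control wells; tested in H4 reporter cells; numbers are from one replicate; inactives centre near -14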
# Mtb hypoxia inh growth: also measured in Mtb hypoxia inh; calls as there; growth inhibition, %; measured here: M. tuberculosis growth (absorbance);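 0% = vehicle and 100% = reference antibiotic; read after six days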
# * = called active by the depositor; ? = inconclusive; . = no result given.
# Values run as follows: Autofluor counter, ugtP null kill, Mtb hypoxia inh, Mtb hypoxia inh growth, BJeLR lethal, RN4220 kill, PrP UTR inh
O=C(CSCc1ccc(Cl)cc1Cl)Nc1c[nH]c(=O)[nH]c1=O
  8787, 5.1, 4.0, 14.7, -4.7, 3.4, -25.8
COc1ccc(-c2nn(-c3ccccc3)cc2C=O)cc1[N+](=O)[O-]
  4001, 9.3, -3.3, 4.0, -8.5, -0.9, 2.5
C=C1[C@@H](CCO)N(S(=O)(=O)C(C)(C)C)C[C@@H]1C
  3738, 0.5, -10.1, -5.9, ., 1.9, -13.2
Cc1cccc(C)c1N(CC(=O)N1CCN(C)CC1)S(C)(=O)=O
  4765, 4.8, 4.9, 5.9, -5.1, 3.1, -8.7
Oc1ccc(Oc2ncc(Cl)cc2Cl)cc1
  9991, -8.0, 6.2, 1.9, -2.7, 11.7, -12.7
Cc1nc2sccn2c(=O)c1S(=O)(=O)Nc1ccc(N2CCOCC2)c(Cl)c1
  5733, 2.9, 6.5, 3.3, -2.6, -12.0, -24.7
Cc1ccc(-c2cc([C@H]3[C@@H]4C=CCC[C@@]4(C)C(=O)N3Cc3ccccc3)ccc2F)cc1
  2937, ., ., ., -1.0, ., -14.4
Cn1c(SCC(=O)NC(C)(C)C)nc(O)cc1=O
  10369, 2.6, 15.5, 0.3, 2.1, 4.6, -22.5
O=C(Nc1ccccc1C(=O)Nc1ccncc1)c1ccc([N+](=O)[O-])cc1
  4842, -1.3, 11.4, 5.6, 0.5, 3.6, -15.9
C[C@@]12C(=O)N(CC3CCCO3)CC(=O)N1C1c3ccccc3OCC1C2c1ccccc1 (stereo not given in full)
  ., -14.2, 4.4, 4.0, ., 3.9, .
O=C(O)CCn1cc(C=C2C(=O)NC(=S)NC2=O)c(-c2cccc(Cl)c2)n1
  3117, 2.1, 1.4, 17.3, 5.9, 1.7, 13.1
Cc1ccc2occ(C=NNC(=O)c3ccc(Cl)cc3)c(=O)c2c1
  ., -1.7, -6.2, -3.6, ., -2.4, .
CC/C(=N/NC(=O)c1ccccc1O)c1c(C)[nH]n(-c2ccccc2)c1=O
  3299, ., ., ., 3.6, ., -12.6
O=S(=O)(Nc1ccc(Br)cn1)c1cccs1
  4508, -0.1, -0.5, 0.5, -4.1, 5.7, -11.6
Cc1cccc(NC(=S)Nc2cccc(C(F)(F)F)c2)n1
  10644, -14.5, 11.2, 5.2, 12.2, 8.3, -27.0
C=CCON=C(C)c1ccc(Oc2cnccn2)cc1
  ., 4.1, 5.1, 4.6, ., 2.2, .
CCOc1ccc(NC(=O)c2ccc(S(=O)(=O)N(C)C)cc2)cc1
  5536, -5.6, -6.4, 2.4, ., 4.4, -17.8
O=C(Nc1ncn[nH]1)c1c(Cl)ccc(Cl)c1Cl
  3751, 0.0, ., ., -1.0, 2.1, -9.6
C=CCCc1ccc(C#N)c(SCc2c(C(=O)OCC)c3cc(OC(C)=O)c(Br)cc3n2C)n1
  ?, -4.2, 6.9, 2.9, 8.8, 3.7, -9.6
CC1(C)OC(=O)N2CCc3ccccc3C21C (stereo not given)
  9898, -2.3, 6.9, 1.1, -2.4, -1.7, -28.6
Oc1ccc(-c2nc3ccccc3s2)cc1
  5298, -2.5, 4.6, 6.4, 11.4, 5.7, -51.1
COc1nc(Nc2cccc([N+](=O)[O-])c2)nc(OC)n1
  4007, 5.6, 9.0, -7.4, -4.4, 3.5, -14.1
Cc1ccc(O)c(C(=O)c2cc(C(=O)NCc3ccccc3)c(=O)n(Cc3ccccc3)c2)c1
  10885, -12.5, 4.9, 6.5, 8.5, 2.2, -12.6
C=CCn1c(Cc2csc(N)n2)nnc1SCC(=O)Nc1ccccc1C(F)(F)F
  23049*, 0.3, 1.8, 4.6, -9.8, -0.7, 4.0
CC1C=CCC2C(=O)N(c3ccc(Cl)cc3O)C(=O)C12 (stereo not given)
  2422, 1.7, 3.1, 4.9, 15.6, 4.4, -14.3
Cc1ccc(N2C(=O)C(=Cc3ccco3)SC2=S)cc1
  ., -0.9, 6.0, 10.9, ., 6.4, .
O=C(Nc1ccccc1)N(CCCN1CCOCC1)Cc1cccs1
  4291, 11.1, 4.8, 6.6, 1.4, 5.6, 7.5
COc1cc2[nH]c(=O)n(Cc3ccc(C(=O)NCC4CCCO4)cc3)c(=O)c2cc1OC (stereo not given)
  4140, -0.2, 3.2, 12.0, -2.3, 5.1, -20.4
Cc1ccccc1NC(=S)NCc1ccco1
  2163, -3.9, 8.5, 2.6, 4.9, 5.9, -11.9
CCCOc1ccc(Cn2c(=O)oc3ccc(C)cc32)cc1OC
  9466, 9.6, -1.4, 1.3, -0.8, 3.8, -18.1
Cn1c(=O)c2c(nc(CN3CCc4ccccc4C3)n2Cc2ccccc2F)n(C)c1=O
  2577, -7.9, 1.4, 1.4, 2.4, 10.4, -5.0
OCCC1CN(Cc2cnc(-c3cccc4ccccc34)nc2)CCN1C1CCCCC1 (stereo not given)
  4855, 1.2, 3.5, 0.2, 6.2, -0.1, -27.8
Cc1ccccc1-n1nnnc1SCc1ncc(-c2ccccc2)o1
  9777, -1.0, -1.8, 3.9, -1.3, 11.1, -7.8
Cc1nc(NC(=O)CN2CCCCC2)sc1C(=O)N(C)C
  3213, -1.9, -7.8, 2.0, -0.6, -0.1, -31.3
COc1ccc(CCNC(=O)CSCC(=O)Nc2ccccc2)cc1OC
  4237, 10.0, 19.4, 1.0, -0.4, 5.9, -3.5
CN1C(=O)c2cccc3c(Cl)ccc(c23)C1=O
  8353, 5.9, 4.1, -0.6, 2.0, 1.5, -7.7
CC(C)=NNc1nc2c(c(=O)[nH]c(=O)n2C)n1CCCc1ccccc1
  3786, -0.1, 8.5, 8.0, -4.3, 5.3, -8.9
O=C(Nc1ccccc1Cl)c1ccc2c(=O)n3c(nc2c1)CCC3
  3444, -0.8, -3.4, 5.3, ., 4.4, -55.3
O=C(c1ccccc1)c1ccc(N2CCCC2)cc1
  5004, 14.6, 6.4, 5.7, -16.1, 7.0, -71.6
COc1ccc(Cl)cc1NC(=O)CN(C)CC(=O)NCc1cccs1
  5848, 0.0, -10.7, 5.1, ., -2.8, 0.3
Cc1ccccc1-c1nnc(SCC#N)o1
  4136, 2.4, 10.0, 2.9, 7.8, 2.5, -12.2
COC(=O)c1ccccc1NC(=O)c1cc2nc(C3CC3)cc(C(F)(F)F)n2n1
  21329*, 9.0, 2.5, 5.5, 2.1, 10.5, -32.3
CC(C)NC(=O)Nc1cccc2c1O[C@H](CN(C)C(=O)Nc1ccc(C(F)(F)F)cc1)[C@@H](C)CN([C@H](C)CO)C2=O
  3436, -6.8, 8.7, 3.8, ., 0.4, -12.2
COc1ccc(C(=O)/C=C/Nc2cc(C)on2)cc1
  10314, 1.7, 11.5, 4.7, -11.4, 4.4, -96.4
CCCCCn1c(=O)[nH]c2cc(C(=O)N3CCN(CC)CC3)ccc2c1=O
  4733, 5.0, 8.9, 4.1, -9.1, 2.9, -16.7
Cc1cc(Oc2ccccc2)nc(N)n1
  10870, -2.6, 13.2, 6.5, -6.1, 6.7, -61.0
Cc1noc(C)c1-c1nc(CSc2ccc(Cl)cc2)no1
  4444, -0.5, -8.8, 1.2, -6.6, 6.0, -7.1
CN1CCN(C(c2cccc(C(F)(F)F)c2)c2nnnn2C(C)(C)C)CC1 (stereo not given)
  11909, 4.4, 15.3, 1.3, 1.2, 5.7, -16.5
O=C(Nc1cccc2ncccc12)c1ccccc1Cl
  3759, 8.1, 5.9, -6.0, 1.4, 2.3, -28.9
N#Cc1cnn(-c2ccccc2)c1NC(=O)c1ccccc1F
  3695, 6.6, 5.5, 2.5, ., 2.6, -6.0

# Some of the entries so far, as labelled records.
C=CCn1c(Cc2csc(N)n2)nnc1SCC(=O)Nc1ccccc1C(F)(F)F
  Autofluor counter: 23049*	ugtP null kill: 0.3	Mtb hypoxia inh: 1.8	Mtb hypoxia inh growth: 4.6	BJeLR lethal: -9.8	RN4220 kill: -0.7	PrP UTR inh: 4.0
CC1C=CCC2C(=O)N(c3ccc(Cl)cc3O)C(=O)C12 (stereo not given)
  Autofluor counter: 2422	ugtP null kill: 1.7	Mtb hypoxia inh: 3.1	Mtb hypoxia inh growth: 4.9	BJeLR lethal: 15.6	RN4220 kill: 4.4	PrP UTR inh: -14.3
Cc1ccc(N2C(=O)C(=Cc3ccco3)SC2=S)cc1
  Autofluor counter: .	ugtP null kill: -0.9	Mtb hypoxia inh: 6.0	Mtb hypoxia inh growth: 10.9	BJeLR lethal: .	RN4220 kill: 6.4	PrP UTR inh: .

# (next part)
# Values run as follows: Autofluor counter, ugtP null kill, Mtb hypoxia inh, Mtb hypoxia inh growth, BJeLR lethal, RN4220 kill, PrP UTR inh
COc1cccc(C(=O)COC(=O)c2ccc(NC(=O)c3ccccc3)cc2)c1
  4122, 5.2, ., ., 2.2, 5.5, -10.6
N#CC(c1nc2ccccc2nc1N1CCCC1)S(=O)(=O)c1ccccc1 (stereo not given)
  7355, 32.8, -0.1, 1.4, -15.6, 44.9, .
Cc1ccc(-c2ccc(/C=N/NC(=S)Nc3ccccc3)o2)cc1[N+](=O)[O-]
  9624, ., ., ., 9.0, ., -54.0
COc1cc(C(=O)NCCCn2ccnc2)cc(OC)c1OC
  2058, 12.3, 16.6, 13.3, -8.5, 5.3, -13.9
COc1nc2ccccc2c(=O)n1-c1ccc(C)cc1
  2565, 9.2, -0.9, 7.0, -4.5, 8.1, 2.4
CCN(C(=O)CN1C(=O)COc2ccc(S(=O)(=O)N3CCCCCC3)cc21)c1cccc(C)c1
  5240, -1.4, 16.2, 5.7, -9.2, 3.5, -17.5
O=C(NN=Cc1ccc(N2CCOCC2)s1)c1ccccc1Cl
  ., -1.5, 5.3, -1.5, ., 5.3, .
COc1cc(NC(=O)CN2C(=O)C(=O)N(C3CCCC3)C2=O)cc(OC)c1
  6652, 12.3, 6.3, 0.1, ., 3.6, -13.4
COC(=O)C(C)NC(=O)C12CC3CC(C1)CC(c1ccc(C)cc1)(C3)C2 (stereo not given)
  2900, 2.1, -0.4, -3.9, -1.7, -10.1, -13.3
Fc1ccc2[nH]c3c(N4CCc5ccccc5C4)ncnc3c2c1
  ., -23.0, ., ., 7.1, -1.8, .
CCN(CC(=O)NC1CCS(=O)(=O)C1)S(=O)(=O)c1cc(Br)ccc1Br (stereo not given)
  5371, 0.0, 6.9, 3.9, -4.4, -0.4, -34.3
COc1cccc2cc(CC(=O)c3ccc(C)c(C)c3)c(=O)oc12
  3574, 0.1, 6.0, -4.8, -2.0, 0.7, -14.6
O=C(c1ccccc1F)N1CCN(c2ncccn2)CC1
  4944, -1.3, ., ., 2.0, -0.9, -22.3
CCOC(=O)c1cc(C#N)c(Oc2ccccc2)nc1-c1ccccc1
  2631, 16.8, ., ., -4.7, -4.2, 1.1
Cc1ccc(-n2cc(CN(C)Cc3nccn3C)c(-c3cccc(C)c3)n2)cc1
  3844, 8.0, 1.5, 25.2, 4.4, -3.4, -14.0
C=CCN1C(=O)S/C(=C\c2ccc(N3CCOCC3)cc2C)C1=O
  7105, -3.4, 7.5, 9.7, -6.7, 5.5, -46.8
C/C(C=NNc1nc(C)cc(=O)[nH]1)=C\c1ccccc1
  ., -4.4, -2.1, 7.3, ., -0.5, .
CCN1CCN(CCNC(=O)c2ccc3c(c2)N(Cc2ccc(F)cc2)C(=O)/C(=C/c2ccccc2)S3)CC1
  5760, 10.6, 7.1, 9.2, 16.9, 19.9, -11.2
Cn1c(Cn2c(=O)sc3ccccc32)nnc1SCC(=O)Nc1ccccc1F
  4863, -3.9, ., ., -5.3, -0.1, -34.4

# 4 entries picked at random from those above, as already listed:
# Values run as follows: Autofluor counter, ugtP null kill, Mtb hypoxia inh, Mtb hypoxia inh growth, BJeLR lethal, RN4220 kill, PrP UTR inh
C/C(C=NNc1nc(C)cc(=O)[nH]1)=C\c1ccccc1
  ., -4.4, -2.1, 7.3, ., -0.5, .
COc1cccc2cc(CC(=O)c3ccc(C)c(C)c3)c(=O)oc12
  3574, 0.1, 6.0, -4.8, -2.0, 0.7, -14.6
Cc1ccc(-n2cc(CN(C)Cc3nccn3C)c(-c3cccc(C)c3)n2)cc1
  3844, 8.0, 1.5, 25.2, 4.4, -3.4, -14.0
CCN(CC(=O)NC1CCS(=O)(=O)C1)S(=O)(=O)c1cc(Br)ccc1Br (stereo not given)
  5371, 0.0, 6.9, 3.9, -4.4, -0.4, -34.3
